Menin MLL FP FL = inhibitors of human menin-MLL interaction, wild-type MLL peptide; Fluorescence polarization, fluorescein-MLL peptide displacement from menin; FP activity change, % at 61.4 µM; 290,000 tested, under 10 active; AID 1766; inconclusive = falling polarisation curve, or a change in total fluorescence; inactive = total fluorescence flat and polarisation flat or rising; no compound was filed as active; the % refers to the polarisation; negative = inhibition;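 further: % of control where 0% means no effect; inhibitors lower the polarisation; unlabelled MLL peptide was the positive control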
Sfp inh = blocks B. subtilis Sfp PPTase activity; Potency, µM, without a hit: max response, negative = inhibition, usual class: inhibitors; Biochemical Sfp PPTase activity, qHTS; actives 3.5% (n = 310,000); AID 1490; Q9F4F7; active means well fitted inhibition curve with a large enough effect; inconclusive means small, poorly fitted or top-dose-only effect, or another doubt; inactive means no such curve, though single readings can be large or run the other way;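 further: the enzyme is Sfp with the accession as filed and its product quenches rhodamine fluorescence; potency means the concentration at half of the fitted maximal effect; 0% = enzyme reaction without inhibitor and -100% = no enzyme wells; top concentration of the series not given in the record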
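After 15 min at room temperature with compound, 15 nM Sfp received 5 uM rhodamine-CoA plus 12.5 uM BHQ-2-ybbR (50 mM Hepes pH 7.6, 10 mM MgCl2). Rate came from the fluorescence difference over 30 min, ex 525/em 598 nm.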
ClpP mod = qHTS Assay for Activators of ClpP; purified B. subtilis ClpP, FRET peptide cleavage, 20 min; Potency, µM (highest dose often 57.5 µM), inactives show at the highest dose activity change, negative = active; actives 1.9% (n = 340,000); AID 651965, 2013; active = well fitted falling curve with a large enough effect; inconclusive = small, poorly fitted or top-dose-only effect; inactive = no such curve, though single readings can be large or run the other way; further: potency means the concentration at half of the fitted maximal effect; the source files actives as falling curves though it sought activators and does not explain the sign; nearly all actives have a fitted effect of over 65% in size; many hits overshoot -100%
Target sequence (P80244 whole entry, looked up): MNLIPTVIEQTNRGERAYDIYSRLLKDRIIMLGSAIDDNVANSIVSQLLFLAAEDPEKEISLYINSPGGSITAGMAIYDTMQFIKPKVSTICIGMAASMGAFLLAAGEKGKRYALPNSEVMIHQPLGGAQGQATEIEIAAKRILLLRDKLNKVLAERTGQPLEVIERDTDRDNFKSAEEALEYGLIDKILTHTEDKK
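FRET quenching reversal measured ClpP activation: 10 microg/mL B. subtilis ClpP at pH 8 with the FRET-FV decapeptide, read at 430 nm after 320 nm excitation. The 20-min minus 0-min signal was scaled between DMSO/no-enzyme wells and ADEP (5.8 microM final).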
gsp ag = agonists of gsp mutant (McCune-Albright syndrome); gsp mutant cells, cAMP HTRF, 30 min; control for the full effect not named in the record; Potency, µM (top dose mostly 76.9 µM), for inactives: at the highest dose activation (cAMP increase), most hits filed as activators; actives 0.13% (n = 340,000); active = well fitted activation curve with a large enough effect; inconclusive = small, poorly fitted or top-dose-only effect, or another doubt; inactive = no such curve, though single readings can be large or run the other way; cell line not stated here;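 further: phosphodiesterase inhibitor Ro 20-1724 added with compounds to block cAMP breakdown; potency means the concentration at half of the fitted maximal effect; nearly all actives have a fitted effect of over 60% in size; about a fifth of the inactives were tested at one dose only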
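Cells stably selected in G418 were plated at 2000/well, grown 16-24 hr, then given compounds in DMSO with the PDE inhibitor […] (300 uM solution added) for 30 min at 37C; cAMP was read by HTRF.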
gsp antag = gsp mutant antagonism | Potency, µM (titrated, usually from 76.9 µM), for the others: top-dose activity change, negative = inhibition, hits mostly inhibitors | gsp-mutant cells, cAMP HTRF, 30 min; control for the full effect not named in the record | actives 0.4% (n = 340,000); active = falling curve of any shape with a large fitted effect; inconclusive = falling curve, mostly with a smaller effect; inactive = flat or rising curve; cell line not stated here;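 further: intracellular cAMP measured with PDE inhibitor Ro 20-1724 present during compound exposure; potency means the concentration at half of the fitted maximal effect; on the % scale 0 is the no-effect control and ±100 the full control effect; nearly all actives have a fitted effect of over 65% in size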
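HTRF cAMP read-out (cAMP-d2 plus anti-cAMP antibody-K in lysis buffer, 30 min RT). Before lysis, cells are exposed to compounds with […] for 30 min at 37C in DPBS containing Ca/Mg, BSA and Tween 20.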
TRPV1 potentiator = enhances activation of the human vanilloid receptor TRPV1; actives 0.02% (n = 320,000); potentiation, % at 8.33 µM; Q8NER1; TRPV1-expressing cells, Fluo-8 calcium influx, capsaicin EC20 potentiation; host cell line not named in the record; control for the full effect not named in the record; AID 540277; active means potentiation above 80%; inconclusive means 30% to 80%; inactive means below 30%; further: 0% is about no effect
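Fluo-8 calcium influx in TRPV1-expressing cells, kinetic read (ex 480/em 520 nm). Compound added and read 3 min for agonist activity, followed by capsaicin at EC20 final and 2 min further read for enhancement.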
D2 potentiator = human D2 receptor positive allosteric modulation. P14416. DiscoveRx D2 beta-arrestin cells, luminescence, 90 min; 100% = 57 uM dopamine signal. potentiation, % (test concentration not listed). actives 0.23% (n = 360,000). AID 624464; active = potentiation of 50% or more; inconclusive = 30% to 50%; inactive = 30% or less;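 further: compound concentration not given in the record; tested on top of an EC20 dose of dopamine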
Target sequence (P14416 whole entry, looked up): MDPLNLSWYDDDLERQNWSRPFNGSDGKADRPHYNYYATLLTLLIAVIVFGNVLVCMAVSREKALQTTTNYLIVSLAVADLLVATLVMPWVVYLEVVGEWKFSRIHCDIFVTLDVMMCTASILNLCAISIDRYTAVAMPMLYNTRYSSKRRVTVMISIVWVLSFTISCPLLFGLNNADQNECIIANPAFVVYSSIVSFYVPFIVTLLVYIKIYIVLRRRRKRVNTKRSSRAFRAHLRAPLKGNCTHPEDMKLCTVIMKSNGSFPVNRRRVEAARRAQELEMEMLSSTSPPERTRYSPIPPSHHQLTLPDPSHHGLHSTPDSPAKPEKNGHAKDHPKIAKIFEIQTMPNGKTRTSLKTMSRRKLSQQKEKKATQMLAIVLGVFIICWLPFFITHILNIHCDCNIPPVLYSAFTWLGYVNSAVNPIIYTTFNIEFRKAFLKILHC
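PathHunter beta-arrestin assay in DiscoveRx D2 cells. Compounds were added with an EC20 of dopamine (50 nM final) for 90 min at 37 deg C. Luminescence was read 1 h after detection reagent, with 57 uM dopamine as the EC100 control.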
* marks the source's active call; other numbers are inactive results; ? = inconclusive; nt = not tested or not shown; & = joins results of further samples; [ ] = dose if it differs, or a comment.

SMILES	Menin MLL FP FL	Sfp inh	ClpP mod	gsp ag	gsp antag	TRPV1 potentiator	D2 potentiator
CCC(C)c1c(O)nc(SCC(=O)Nc2ccccc2)[nH]c1=O (stereo not given)	-4.3	19%	0.6%	-16%	-2%	9	-14
Cc1c(C(=O)NCCCn2ccnc2)oc2ccccc12	-0.5	2%	-0.6%	?	4%	4	-11
O=C1CC(=O)C(n2cncn2)C(c2ccc(Cl)cc2)C1 (stereo not given)	1.3	29%	-1.9%	?	1%	-4	-4
CC1CCN(C(=O)Cn2nnc(-c3ccc([N+](=O)[O-])cc3)n2)CC1	3.5	4%	-0.9%	-18%	-8%	-26	2
COc1ccc(OC)c(-n2c(-c3ccc(C)cc3)n[nH]c2=S)c1	2.7	1%	49%	?	?	15	-4
COc1cccc(OCCNC(=O)c2ccc(C)cc2)c1	0.6	13%	nt	1%	1%	-1	-10
CCS(=O)(=O)NCCNc1ccc([N+](=O)[O-])cc1	2.0	22%	nt	18%	0%	-13	-9
O=C(O)c1cccc(NC2=Nc3cccc4cccc2c34)c1	1.9	20%	3.9%	-2%	8%	-7	-7
O=c1c2ccsc2ncn1Cc1ccccc1F	3.5	14%	-0.1%	-11%	-4%	-11	-6
CCCn1nnnc1SCC(=O)N1CCCCC1	nt	22%	nt	-10%[15.4 µM]	10%	7	2
COc1ccc(C2=CSC3=NNC4(CCCCC4)NN23)cc1	2.1	-23%	-2.8%	-2%[15.4 µM]	8%	-4	-5
CC(=O)Oc1ccc(OC(C)=O)c2c1C1C=CC2CC1	nt	nt	-9.3%	27%	5%	nt	10
O=C(CSc1nc(-c2ccccc2)cc(=O)[nH]1)Nc1ccccc1F	-1.5	-18%	0.0%&-0.5%	17%	-9%	10	3
CCOC(=O)N1CCN(C(=O)c2noc3c2COc2ccccc2-3)CC1	nt	-2%	-1.5%	11%	-6%	1	-4
COc1ccccc1N(C)S(=O)(=O)c1ccc(C(=O)Nc2nc(C)cs2)cc1	-2.6	19%	0.7%	5%	?	-3	-17
COCCn1c(SCC(=O)Nc2cc(C)on2)nnc1-c1c[nH]c2ccccc12	-1.2	14%	-1.3%	-12%	10%	9	-4
CCOC(=O)N1CCC(NC(=O)CCc2c(C)nc3nc(C)nn3c2C)CC1	4.6	14%	-5.4%	-35%[inhibitor]	22%	-5	1
COCCN(C(=O)CNC(=O)c1cccs1)C(C(=O)NC1CCCC1)c1cccs1 (stereo not given)	4.3	14%	-0.3%	-7%	6%	3	-18
O=C(NCCN1C(=O)S/C(=C\c2cccnc2)C1=O)C1CC(=O)N(Cc2ccco2)C1 (stereo not given)	0.0	6%	nt	5%[15.4 µM]	5%	2	-2
O=C(COC(=O)c1ccc(F)cc1)NCC1CCCCC1	nt	nt	2.3%	?	-1%	nt	-3
COc1ccc(CCNC(=O)Cn2nnc3ccccc3c2=O)cc1	2.6	-2%	-3.5%	-25%	6%	-9	-8
C1=C(c2ccc(-c3ccccc3)cc2)Nc2ncnn2C1c1ccco1 (stereo not given)	?	?	16µM*	?	0%	24	0
Cc1ccc(OCc2cc(C(=O)NC(C)Cc3cccc(C)n3)no2)cn1 (stereo not given)	nt	-1%	-0.3%	27%	-11%	-12	-11
Cc1noc(C)c1COC(=O)c1ccccc1NC(=O)Cc1ccccc1	-0.1	0%	-11%	6%	7%	3	-8

Some of these compounds in order of length of the SMILES, highest first:
SMILES	Menin MLL FP FL	Sfp inh	ClpP mod	gsp ag	gsp antag	TRPV1 potentiator	D2 potentiator
CCOC(=O)N1CCC(NC(=O)CCc2c(C)nc3nc(C)nn3c2C)CC1	4.6	14%	-5.4%	-35%[inhibitor]	22%	-5	1
Cc1ccc(OCc2cc(C(=O)NC(C)Cc3cccc(C)n3)no2)cn1 (stereo not given)	nt	-1%	-0.3%	27%	-11%	-12	-11
C1=C(c2ccc(-c3ccccc3)cc2)Nc2ncnn2C1c1ccco1 (stereo not given)	?	?	16µM*	?	0%	24	0

Following part
SMILES	Menin MLL FP FL	Sfp inh	ClpP mod	gsp ag	gsp antag	TRPV1 potentiator	D2 potentiator
CCOCC(=O)Nc1ccc(Br)c(C)c1	-3.2	14%	nt	-5%[15.4 µM]	14%	-2	-4
Cc1cccc(C(=O)NNC(=O)CCn2nnc3ccccc32)c1	0.5	13%	nt	-20%	7%	13	-6
COc1ccc(-c2nc(CS(=O)CC(=O)NC3CCCCC3)c(C)o2)cc1 (stereo not given)	nt	21%	3.7%	34%	-9%	12	-4
CCOC(=O)N1CCN(c2ccc(C(C)=O)cc2F)CC1C (stereo not given)	6.0	16%	0.2%	-7%	-16%	-9	0
COc1cccc(-n2cnc(=O)c3cccnc32)c1	-2.1	8%	nt	-5%	11%	4	1
O=C(c1cn(Cc2ccccc2)nc1-c1cccnc1)N1CCN(Cc2ccccc2)CC1	nt	nt	1.5%	-57%[inhibitor]	-5%	5	-2
COc1ccc(NC(=O)c2cccc(S(=O)(=O)N3CCN(c4ccccc4)CC3)c2)c(OC)c1	nt	nt	-0.4%	-1%	5%	12	2
CCn1cnc2c(cnn2-c2ccccc2)c1=O	4.4	7%	-13%	-26%	15%	7	-3
COc1ccc(CNC(=O)C/C(C)=N/NC(=O)c2ccccc2OC)cc1	-0.3	0%	nt	-2%	8%	2	-4
CN(C(=O)COC(=O)c1ccccc1OCc1ccc(Cl)cc1)c1c(N)n(Cc2ccccc2)c(=O)[nH]c1=O	nt	nt	nt	1%[15.4 µM]	-10%	-3	3
NS(=O)(=O)c1cc(C(=O)N2CCNC(=O)C2)ccc1Cl	-14	7%	nt	-28%	10%	-8	-2
COCCNC(=O)Cc1ccc(F)cc1	2.6	21%	1.5%	-29%	8%	8	-1
Cn1cnc([N+](=O)[O-])c1Sc1nc(N)nc2c1ncn2C1CC(O)C(CO)O1 (stereo not given)	nt	nt	-21%	18%	8%	nt	-13
CC(=O)c1cccc(NC(=O)Cn2cnc(S(=O)(=O)N3CCc4ccccc43)c2)c1	3.9	7%	-0.3%	-19%	-6%	11	-15
O=C(CSCC(=O)NCc1ccco1)NCc1ccco1	2.0	?	-0.4%	-4%	5%	-1	23
FC(F)(F)c1nnc(-c2ccccc2)nc1Sc1ccc(Cl)cc1	-1.8	?	0.7%	-4%	5%	5	-1
CCCC(=O)N1CCN(c2nc3ccc(Br)cc3s2)CC1	nt	-4%	0.3%	-2%	11%	4	-5
CN(CCc1cn[nH]c1)C(=O)CC1C(=O)NCCN1Cc1ccccc1C(F)(F)F (stereo not given)	-14	-21%	-9.7%	-35%[inhibitor]	9%	-2	0
COc1ccc(CN2CC(=O)N(c3cccc(Cl)c3)C2=S)cc1OC	0.1	10%	nt	-2%	-6%	-10	-3
CN(C)S(=O)(=O)c1ccc(C(=O)Oc2coc(CSc3ncccn3)cc2=O)cc1	1.2	-19%	-17%	?	15%	-10	4
Cc1cccc(NC2SC(=O)NC2=O)c1 (stereo not given)	0.5	-1%	-3.6%	5%[15.4 µM]	-1%	3	-4
Cc1ccc(Cn2c(C(CO)Nc3nc(-c4ccc(Cl)c([N+](=O)[O-])c4)cs3)nc3ccccc32)cc1 (stereo not given)	nt	nt	-3.1%	nt	-12%	nt	-1
CC(=O)Nc1cc(C(=O)NCc2ccco2)ccc1Sc1ccc(Cl)cc1	4.0	0%	-1.2%	-10%	5%	-16	-29
COC1OC(CO)C(N(C)C(C)=O)C1O (stereo not given)	nt	nt	-5.9%	-55%[inhibitor]	5%	nt	-4
CC1(C)CC(=O)C(CC(=O)Nc2ccc(S(N)(=O)=O)cc2)=C(O)C1	0.1	-1%	-0.9%	5%	10%	22	-9
CC(C(=O)Nc1ccc(C#N)cc1)N(C)CC(=O)Nc1ccccc1Br (stereo not given)	-0.4	-10%	0.3%	10%	-10%	-25	-4
CC(C)=CCc1c2c(c(O)c3c(=O)c4c(oc13)-c1cc(O)c(O)cc1OC4C=C(C)C)C=CC(C)(C)O2 (stereo not given)	nt	nt	-2.0%	nt	-7%	nt	-15
COc1ccc(Br)cc1/C=c1\sc2nc(-c3ccco3)nn2c1=O	36[activator]	?	-1.3%	12%	-4%[15.4 µM]	-23	-8
CCOC(=O)c1cc(=O)c2ccc(OCC(=O)Nc3ccccc3)cc2o1	-4.0	-9%	nt	18%	-13%	20	-2
COc1cccc2c1C(=O)c1ccc3ccccc3c1C2=O	0.6	-6%	-0.4%	-9%	-17%	19	20
Clc1ccccc1-c1nnn(Cc2ccc(-c3nn[nH]n3)cc2)n1	2.4	10%	2.7%	0%	-7%	0	-6
NCCCNc1ccc([N+](=O)[O-])cc1C(F)(F)F	0.0	-2%	nt	19%[15.4 µM]	nt	6	-23
COCCSc1ccccc1C(=O)Nc1ccccc1C#N	3.0	16%	0.9%	-17%	0%	-2	-12
COc1ccc(N/N=C(C)/C(=N/O)C(=O)Nc2ccccc2)cc1	0.6	4%	nt	-19%	-5%	-4	-19
Clc1ccccc1OCCN1CCC(Cc2ccccc2)CC1	2.9	-20%	0.9%	-31%	14%	6	-14
Cc1cc(C)n2c(SCc3cccs3)nnc2n1	-4.3	-9%	-0.1%	8%	13%	2	-19
COC(=O)c1[nH]c2cc(C)ccc2c1NC(=O)CN1CCOCC1	-2.8	24%	nt	1%	3%	nt	0
Nc1nc(SCc2ccc(Cl)cc2Cl)ns1	0.9	11%	0.2%	-5%	8%	4	-12
C[C@]12CC[C@@H]3c4ccc(O)cc4[C@@H](O)C[C@H]3[C@@H]1CC[C@@H]2O	5.0	20%	nt	nt	nt	7	nt
CCC1CCCCN1Cc1nc2c(c(=O)n(C)c(=O)n2C)n1Cc1cccc2ccccc12 (stereo not given)	1.3	5%	1.7%	-30%	5%	-22	-2
COc1cc(O)c(C(CC(=O)N2CCCCC2)c2cc(OC)c(OC)c(OC)c2)c(OC)c1 (stereo not given)	-0.1&1.1	3%&15%	-1.5%	nt	7%	?	-4
CCOc1ccc2nc(NC(=O)C3CCN(S(=O)(=O)c4cnc[nH]4)CC3)sc2c1	3.0	-6%	-2.7%	-49%[inhibitor]	-6%	nt	-1
O=C(Nc1ccccn1)c1cc2cc([N+](=O)[O-])ccc2s1	-3.9	12%	0.0%	-30%	2%	-16	-32
O=C(NCc1ccccc1)C1=C[C@H](c2coc3ccccc3c2=O)C[C@H](OCCCCO)O1	-0.9	10%	0.6%	nt	12%	9	-6
CCN(CC)S(=O)(=O)c1ccc(C)c(NC(=O)COC(=O)C=C(C)C)c1	3.1	16%	0.2%	-6%	6%	1	-11
